SARS PLP yeast: qHTS of Yeast-based Assay for SARS-CoV PLP; S. cerevisiae expressing SARS-CoV PLpro, growth rescue; control for the full effect not named in the record; Potency, µM (top dose mostly 32.9 µM), for inactives: at the top dose activity, positive = growth rescue; 330,000 tested, 0.19% active; also: 0% is about no effect; nearly all actives have a fitted effect of over 55% in size; growth read by luminescence after 48 h
RE007 growth inh: qHTS Assay for Inhibitors of the HIV-1 protein Vpr | Potency, µM (highest dose often 92.2 µM), for inactives: at the highest dose activity change, negative = less growth | 360,000 tested, 0.21% active | S. pombe RE007 Vpr strain, BacTiter-Glo ATP luminescence, 24 h; control for the full effect not named in the record; active = well fitted falling curve with a large enough effect; inconclusive = small, poorly fitted or top-dose-only effect; inactive = no such curve, though single readings can be large or run the other way;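 also: % is scaled to controls: 0 for no effect and ±100 for the full control effect; nearly all actives have a fitted effect of over 50% in size; the assay follows cell death caused by Vpr and the record does not say whether a fall means rescue or toxicity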
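Fission yeast strain RE007, carrying one chromosomally integrated HIV-1 vpr copy, was seeded at OD 0.01 in PMG+AL medium with 23 nL pinned compound. After 24 h at 30 °C and 99% humidity, viability was read by BacTiter-Glo luminescence.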
NS1 function inh: qHTS Assay for Inhibitors of Influenza NS1 Protein Function; 270,000 tested, 0.4% active; AID 2326, 2010; Potency, µM (titrated, usually from 46.1 µM), for the others: at the highest dose activity, positive = more growth; S. cerevisiae slowed by influenza A NS1, growth recovery by OD600; also: actives are rising curves; nearly all actives have a fitted effect of over 50% in size
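Compounds were scored for reversing the slow growth caused by influenza A NS1 in S. cerevisiae, measured by optical density at 600 nm. Assay medium contained 2% galactose at pH 6.0; NS1-free yeast of the same strain were the positive control.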
Cruzain Triton: qHTS Assay for Promiscuous and Specific Inhibitors of Cruzain (with detergent); Cruzipain (Trypanosoma cruzi), P25779; purified cruzain, Z-FR-AMC fluorescence, 0.01% Triton; Potency, µM, without a hit: max response, negative = inhibition, most hits filed as inhibitors; 200,000 tested, 0.43% active; AID 1478, 2009; active = well fitted curve in the direction sought with a large enough effect; inconclusive = small, poorly fitted or top-dose-only effect, or another doubt; inactive = no such curve, though single readings can be large; an effect the other way counts as inactive or inconclusive;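 also: plate controls were neutral wells for no effect and buffer without enzyme for full effect; nearly all actives have a fitted effect of over 40% in size; top concentration of the series not given in the record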
Target sequence (P25779 123-467 limits assumed): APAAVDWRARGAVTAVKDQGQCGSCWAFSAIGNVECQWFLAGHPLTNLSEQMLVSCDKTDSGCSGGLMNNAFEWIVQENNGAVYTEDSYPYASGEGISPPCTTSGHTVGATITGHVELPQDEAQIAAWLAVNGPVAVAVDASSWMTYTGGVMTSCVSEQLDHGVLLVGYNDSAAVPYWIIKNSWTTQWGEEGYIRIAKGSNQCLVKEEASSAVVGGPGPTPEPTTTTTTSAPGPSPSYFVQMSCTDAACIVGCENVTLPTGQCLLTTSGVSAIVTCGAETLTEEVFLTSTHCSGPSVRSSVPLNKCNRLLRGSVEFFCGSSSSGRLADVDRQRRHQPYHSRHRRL
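Read-out: AMC fluorescence (360 nm excitation, 450 nm emission), four reads over 2 min, first-to-third difference used. Conditions: cruzain 1.5 nM, Z-FR-AMC 2 uM, pH 5.5 acetate, 5 mM DTT, 0.01% Triton X-100.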
Lassa entry inh: qHTS for Inhibitors of binding or entry into cells for Lassa Virus | 300,000 tested, 1.2% active | Lassa virus pseudotype entry inhibition, cell reporter; control for the full effect not named in the record | Potency, µM (titrated, usually from 37.9 µM), inactives show at the highest dose activity change, negative = inhibition, usual class: inhibitors; active means well fitted inhibition curve with a large enough effect; inconclusive means small, poorly fitted or top-dose-only effect, or effect the other way; inactive means flat fitted curve, though single readings scatter; tested in HEK293 cells; also: % is scaled to controls: 0 for no effect and ±100 for the full control effect; nearly all actives have a fitted effect of over 50% in size; luciferase read-out
StopGo reporter: High Throughput Screening for Foot and Mouth Disease Virus Antivirals | human cells with a luciferase reporter of 2A StopGo recoding; control for the full effect not named in the record | Potency, µM (highest dose often 57.9 µM), inactives show top-dose signal change, negative = less light | 410,000 tested, 1.2% active | AID 1159524, 2015; active = well fitted falling curve with a large enough effect; inconclusive = small, poorly fitted or top-dose-only effect; inactive = no such curve, though single readings can be large or run the other way; tested in HEK293T cells; also: % is scaled to controls: 0 for no effect and ±100 for the full control effect; nearly all actives have a fitted effect of over 45% in size; luciferase light after 4 h
Cruzain inh noDet: qHTS Assay for Promiscuous and Specific Inhibitors of Cruzain (without detergent); purified cruzain, Z-FR-AMC fluorescence, no detergent; Potency, µM, for inactives: max response, negative = inhibition, most hits filed as inhibitors; 200,000 tested, 2.3% active; AID 1476, 2009; active = well fitted curve in the direction sought with a large enough effect; inconclusive = small, poorly fitted or top-dose-only effect, or another doubt; inactive = no such curve, though single readings can be large; an effect the other way counts as inactive or inconclusive;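 also: plate controls were enzyme without inhibitor for no effect and buffer without enzyme for full effect; nearly all actives have a fitted effect of over 40% in size; top concentration of the series not given in the record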
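Purified cruzain at 1.5 nM, pre-incubated 15 min with compound at room temperature in 100 mM sodium acetate pH 5.5, 5 mM DTT, 0.00005% Triton X-100. Reaction started with 2 uM Z-FR-AMC; AMC fluorescence increase over 60 s gives rate.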
Marburg entry inh: qHTS for inhibitors of binding or entry into cells for Marburg Virus; Potency, µM (top dose mostly 37.8 µM), for the others: at the top dose activity change, negative = inhibition, most hits filed as inhibitors; Marburg virus pseudotyped entry inhibition, cell reporter; control for the full effect not named in the record; about a third of the inactives were read at about 46 µM; 300,000 tested, 1.8% active; active = well fitted inhibition curve with a large enough effect; inconclusive = small, poorly fitted or top-dose-only effect, or effect the other way; inactive = flat fitted curve, though single readings scatter; tested in HEK293 cells; about a fifth of its hits are not listed in these tables; also: % is scaled to controls: 0 for no effect and ±100 for the full control effect; luciferase read-out
An asterisk follows results filed as active; ? = inconclusive; / = not tested or not shown; & = joins results of further samples; [ ] = remark or other dose. Unless noted, calls follow the shape of the dose curve; as a rule, active means well fitted rising curve with a large enough effect; inconclusive means small, poorly fitted or top-dose-only effect; inactive means no such curve, though single readings can be large or run the other way. Potency is read from the fitted curve at half-maximal effect.

compound	SARS PLP yeast	RE007 growth inh	NS1 function inh	Cruzain Triton	Lassa entry inh	StopGo reporter	Cruzain inh noDet	Marburg entry inh
O=C1CC(N2CCN(c3ccccc3)CC2)C(=O)N1c1ccc(Cl)cc1 (stereo not given)	-23%	-5%	4%	/	/	-4%	/	/
O=[N+]([O-])c1ccc(N2CCN(c3ccccc3F)CC2)c(S(=O)(=O)N2CCOCC2)c1	-44%	-7%	17%	-4.8%	1%	-17%	?	1%
CC12CCC(C(=O)Nc3ccccc3Cl)([C@H](Br)C1=O)C2(C)C (stereo not given in full)	-1%	2%	1%	/	6%	-12%	/	1%[46.1 µM]
C=CCn1c(SCc2nc3sc(C(=O)O)c(C)c3c(=O)[nH]2)nnc1-c1ccc(C(C)(C)C)cc1	-1%	-12%	14%	/	?	0%	/	-11%[46.1 µM]
NNC(=O)CSc1nnc(-c2ccccc2)n1-c1ccccc1	0%	22%	?	/	?	-6%	/	27%
O=C(NNc1ccccc1[N+](=O)[O-])Nc1ccc(Cl)c(Cl)c1	-19%	11%	-47%	-8.5%	-10%	-14%	5%	?
COc1cccc(-c2nn(-c3ccccc3)cc2/C=C\C(=O)c2cccs2)c1	-7%	0%	?	3.2%	-5%	-28%	13µM*	?
CC(C)c1ccc(NC(=O)C2CCN(S(=O)(=O)c3cccc4nonc34)CC2)cc1	/	/	/	-3.0%	-11%[46.1 µM]	-16%	-4%	?
Cc1ccccc1Cn1c(SCc2ccc(C(=O)NCc3cccs3)cc2)nc2ccncc21	/	/	/	2.4%	/	8%	?	-1%[46.1 µM]
COC(=O)c1ccc2[nH]c3cccc(/C(=C/c4ccccc4)c4ccccc4)c3c2c1	-4%	-7%	8%	/	/	-27%	/	/
COc1ccc(C(=O)Nc2nnc(Cc3ccc(OC)c(OC)c3)s2)cc1	2%	5%	-3%	/	18%[46.1 µM]	-18%	/	-16%[46.1 µM]
COCCCNC(=O)CSc1ccsc1[N+](=O)[O-]	-1%	2%	-3%	/	/	-1%	/	/
O=C(OCC(=O)C12CC3CC(CC(C3)C1)C2)c1ccc(O)cc1O	-2%	?	/	/	?	-1%	/	-27%[46.1 µM]
COC(=O)CNC(=O)c1ccccc1F	-4%	13%	2%	1.8%	?	/	-21%	16%
COc1ccc(C(=O)NCC2CCCO2)cc1OC (stereo not given)	-4%	-20%	0%	/	/	-4%	/	/
Cc1cccc(N2CCN(Cc3cnc(Cl)s3)CC2C)c1 (stereo not given)	-3%	-19%	/	/	-16%	-9%	/	?
CCOC(=O)c1ccc(NC(=O)c2cccc(C)c2[N+](=O)[O-])cc1	0%	-8%	-6%	/	?	43%[activator]	/	?
O=C(COc1ccc(S(=O)(=O)N2CCOCC2)cc1)NCCc1ccccc1	9%	-12%	/	/	-16%	27%	/	-27%[46.1 µM]
CCC(C)N1CC(=O)N2Cc3[nH]c4ccccc4c3C[C@H]2C1=O (stereo not given in full)	0%	?	3%	/	/	-4%	/	/
COc1ccc(-c2cc([C@H]3[C@@H]4C=CCC[C@@]4(C)C(=O)N3Cc3ccccc3)ccc2F)cc1OC	-5%	20%	14%	/	/	?	/	/
CC(=O)C1CCC2C3C(N4CC4)CC4=CC(=O)CCC4(C)C3CCC12C (stereo not given)	/	-18%	/	/	-21%	-22%	/	?
CCC(=O)Nc1c(S(=O)(=O)c2ccc(C)cc2)c2nc3ccccc3nc2n1C(C)c1ccccc1 (stereo not given)	-12%	6%	-31%	-6.6%	-21%	-15%	13%	?
O=C(NC1CCN(Cc2ccccc2)CC1)c1ccccc1NS(=O)(=O)c1ccc(F)cc1	-4%	3%	/	/	-19%	-20%	/	-18%
CC1(C(=O)OCC(=O)Nc2nnc(-c3ccccc3)o2)CC1(Cl)Cl (stereo not given)	1%	-17%	/	/	4%	-12%	/	?
COc1ccccc1C(=O)Nc1ccccc1C(=O)NCc1ccco1	5%	5%	-4%	/	/	-13%	/	/
CN(C)C(=O)c1nc2ccc(Cl)cn2c1CNCc1ccccc1OC(F)(F)F	-1%	6%	-3%	/	0%[46.1 µM]	-5%	/	?
O=C(NC(Nc1nc2ccc([N+](=O)[O-])cc2s1)(C(F)(F)F)C(F)(F)F)c1cccnc1	-24%	4%	0%	-9.0%	?	2.8µM*	3%	?
CC1CCCC(C)N1C(=O)COC(=O)c1ccc2c(c1)OCO2 (stereo not given)	-7%	2%	1%	1.2%	-25%	49%[activator]	0%	?
COc1cccc(C2=CC(c3ccc(OC)c(OC)c3)NC(=S)N2)c1 (stereo not given)	-2%	12%	5%	/	/	-10%	/	/
COCCN(C(=O)Cc1coc2cc(C)c(C)cc12)c1c(N)n(Cc2ccccc2)c(=O)[nH]c1=O	-1%	?	/	/	-9%[46.1 µM]	-16%	/	-5%
CCc1cc2c(=O)c(-c3cscn3)coc2cc1O	0%	-9%	-8%[9.22 µM]	-0.1%	?	21%	-8%	?
Cc1ccc(Cl)cc1NS(=O)(=O)c1ccc(N2CCCCS2(=O)=O)cc1	/	/	/	-6.4%	7%[46.1 µM]	11µM*	-2%	/
Cn1ccnc1SCc1cn2cc(Br)ccc2n1	-2%	-17%	-18%	0.5%	?	-26%	1%	6.3µM*
CCCn1c(=O)c2sccc2n2c(CCCC(=O)NCCc3ccc(Cl)cc3)nnc12	/	/	/	-0.2%	13%[46.1 µM]	11%	6%	/
CC1(c2cccc(Br)c2)NC(=O)NC1=O (stereo not given)	-1%	-15%	-3%	/	11%	-9%	/	5%[46.1 µM]
C/C(=N\NC(=O)Cc1ccccc1)c1ccc(Br)s1	12%	9%	-4%	/	/	16%	/	/
Cc1cccc(NC(=S)N2CCOCC2)c1C	-2%	13%	17%	0.3%	4%	-20%	8%	-2%
CCOc1ncccc1C(=O)OCC(=O)c1c(N)n(C)c(=O)n(C)c1=O	2%	2%	-2%	2.2%	22%	-21%	-2%	5%
Cc1cc(C(=O)CSc2nc(N)cc(N)n2)c(C)n1CCc1ccc(F)cc1	-4%	5%	-38%	-13%	?	25µM*	?	?
CCOC(=O)c1ccc(N2CCOCC2)c(NC(=O)COCC(=O)O)c1	1%	-12%	0%	/	12%	-21%	/	0%
Cc1ccc(C)c(N2C(=O)c3cc(N4CCOCC4)c([N+](=O)[O-])cc3C2=O)c1	21%	18%	9%	-8.4%	-1%	-26%	4%	?
CC1Oc2ccccc2N(CC(=O)NCc2cccs2)C1=O (stereo not given)	10%	-1%	-12%	0.0%	?	33%[activator]	-1%	6%
CCOC(=O)c1ccc(NC(=S)N2CCSC2c2ccc(Cl)cc2)cc1 (stereo not given)	-63%	-10%	11%	-5.6%	?	-5%	-3%	6%
Cc1ccc(S(=O)(=O)Nc2ccccc2-c2ccccc2)cc1	-15%	-16%	-19%	-2.2%	-8%	9%	-6%	?
N#Cc1c(N)nc2c(c1-c1ccncc1)CCCCC2	7%	5%	-8%	1.0%	-1%	0%	-3%	?
COc1ccc(N2C(=O)c3ccccc3NC23CCCCC3)cc1	0%	-2%	-7%	-4.2%	-39%	/	1%	?
COc1cccc(/C=C/C(=O)OCC(=O)NCC2CCCO2)c1OC (stereo not given)	-33%	9%	13%	-2.0%	11%	10%	-21%	5%
N#Cc1c(NC(=O)C(=O)NCCCN2CCOCC2)sc2c1CCCC2	27%	-4%	-3%	/	/	-3%	/	/
CN1c2cccc3cccc(c23)N(C)C1c1cccs1	20%	-8%	?	-0.9%	-12%	0%	-5%	?
CC1CC(C)CN(CCCNC(=O)CN2C(=O)c3cccnc3Oc3ccc(Cl)cc32)C1 (stereo not given)	3%	-13%	0%	/	?	-8%	/	?
Cc1ccc(CNC(=O)C(=O)NCC2OCCCN2S(=O)(=O)c2ccc(F)cc2)cc1 (stereo not given)	4%	2%	11%	/	-13%	-16%	/	-16%
COC(=O)c1ccccc1NC(=O)c1ccc(F)cc1	-2%	-12%	0%	-9.4%	1%	-4%&-13%	7%	19%&19%&19%
CSc1ccccc1OCc1cc(C(=O)NCCCn2nc(C)cc2C)no1	-5%	0%	-30%	/	-4%	-18%	/	0%
O=S(=O)(Nc1nc2ccccc2nc1NCc1ccco1)c1ccc(F)cc1	1%	-8%	2%	/	/	-3%	/	/
COc1cc(OC)c(OC)cc1/C=N/NC(=O)c1cccc(S(=O)(=O)N2CCOCC2)c1	0%	-2%	/	/	-13%[46.1 µM]	-16%	/	13%[46.1 µM]
CN1C(=O)c2ccccc2Sc2ccc(NC(=O)c3ccccc3F)cc21	/	/	/	-4.7%	-17%[46.1 µM]	-19%	-4%	/
Cc1cc(C(=O)COC(=O)c2ccc(NC(=O)CC#N)cc2)c(C)n1-c1ccc(OC(F)F)cc1	-6%	6%	/	/	10%[46.1 µM]	-6%	/	-3%[46.1 µM]
CCOC(=O)C1C(=O)C=C(c2ccc(C)cc2)CC1c1ccccc1 (stereo not given)	-3%	4%	-2%	/	16µM*	-5%	/	20%[46.1 µM]
O=C(NCc1cccs1)C1CC(=O)N(c2ccccc2)C1 (stereo not given)	4%	3%	?	22%	-7%	-17%	2%	14%

Hits appear at their usual frequency (roughly 4.7% active in at least one column).
